# High-throughput results from PubChem.
# Beta apoptosis: beta cell apoptosis inhibition; protection from apoptosis, % (concentration not given with the values); 0.8% of 300,000 active; INS-1E cytokine-induced death, ATP luminescence, 48 h; percent of positive-control rescue, neutral wells zero; AID 435005;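 active means all replicates at 75% or more, or half of them and the mean; inconclusive means half reach 75% but not the mean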;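 further: 0% = cytokine-treated negative control wells and 100% = positive control rescue; higher means more ATP so stronger rescue from cytokine killing; wells of about 40 µL received 100 nL stock; the first replicate is given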
# T cruzi inh: blocks replication of Trypanosoma cruzi; AID 1885; T. cruzi beta-gal in NIH3T3, luminescence, 90 h; inhibition, % (concentration not given with the values); 1.4% of 300,000 active;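 active means mean inhibition across valid replicates above about 55%, limit read from the data; inconclusive means mean below that limit but half or more replicates reach it; inactive means mean below it, under half of replicates reach it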;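 further: signal also drops with host cell toxicity which is not excluded here; 0% = plate median of DMSO wells and 100% = zero luminescence signal; higher percent means less beta-gal luminescence so fewer parasites; stock transfer was 50 nL into about 50 µL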
# rRNA inh HTS: selective bacterial rRNA inhibition in E. coli | AID 720706 | 1.6% of 350,000 active | GFP signal change (wild-type ribosome), % (no concentration beside the values) | E. coli WT GFP vs humanized-ribosome RFP mutants, fluorescence, 24 h; hits give low values; DMSO median 0, no signal -100;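 active means significant combined selectivity score with lowered wild-type GFP, culture density cut under 30%, mutant RFP and density less affected; inactive means any of these conditions unmet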; further: one replicate is shown; some compounds called inactive have numbers as strong as hits
# UCH37 DUB inh: inhibitors of human deubiquitinating enzyme UCH37; inhibition, % (no concentration beside the values); purified proteasome/UCH37, Ub-AMC cleavage fluorescence; Q9Y5K5; 0.33% of 330,000 active;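 active means mean of two replicates above 20%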;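 further: 0% = compound-free wells with enzyme and 100% = wells lacking proteasome; stock transfer was 100 nL into about 20 µL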
# Target sequence (Q9Y5K5 whole entry, looked up): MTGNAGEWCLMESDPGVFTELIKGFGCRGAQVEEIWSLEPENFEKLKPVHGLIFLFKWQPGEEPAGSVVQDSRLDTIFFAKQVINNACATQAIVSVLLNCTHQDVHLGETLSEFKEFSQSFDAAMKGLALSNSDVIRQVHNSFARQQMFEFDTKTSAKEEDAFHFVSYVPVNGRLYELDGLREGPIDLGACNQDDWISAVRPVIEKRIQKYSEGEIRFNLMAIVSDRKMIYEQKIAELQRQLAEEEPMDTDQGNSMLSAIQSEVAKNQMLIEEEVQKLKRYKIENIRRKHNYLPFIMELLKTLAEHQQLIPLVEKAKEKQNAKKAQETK
#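 Material: Human UCH37 enzyme supplied as purified proteasome complex | Schedule: 30 min compound-proteasome preincubation then 25 min substrate reaction, room temperature | Detection: AMC fluorescence from Ub-AMC cleavage, excitation 355 nm, emission 460 nm | Benchmarks: Wells without proteasome as full block, compound-free enzyme plus substrate as uninhibited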
# E coli growth: E. coli growth inhibition; Escherichia coli growth, OD600, 23 h; hits give low values; OD600 absorbance (concentration not given with the values); 0.21% of 330,000 active;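 active means OD600 absorbance below the run mean of sample wells minus 3.6 SD, in any replicate, cut at about 0.56 in these data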;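 further: stock transfer was 300 nL into about 60 µL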
# Bfl-1 A1 inh: inhibitors of the anti-apoptotic protein A1, read as caspase activation. MEF A1-2A-BIM cells, Caspase-Glo 3/7 luminescence, 3 h; percent of clofoctol response, vehicle zero. caspase activation, % (test concentration not listed). 0.066% of 330,000 active;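 active means over half of replicate activation scores above 10%, or exactly half above 10 with the replicate mean above 10; inconclusive means replicate mean below 10 yet half the replicates above 10; inactive means over half of replicates below 10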;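 further: wells of about 30 µL received 50 nL stock; many hits fall short of the cut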
# MLL AF4-AF9 inh: inhibitors of human MLL-AF4/AF9 interaction | inhibition, % at 10 µM | 0.47% of 350,000 active | AlphaScreen, biotin-AF4 peptide binding to FLAG-AF9 | AID 651704;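 active means every replicate reaching a set inhibition limit, whatever the replicate mean, cut at about 25% in these data; inconclusive means mean inhibition reaches that limit but some replicates miss it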;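 further: 0% = plate neutral control median and 100% = total signal loss; the record names both 10 and 1 µM as test concentration; the first replicate is given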
# Target sequence (P42568 whole entry, looked up): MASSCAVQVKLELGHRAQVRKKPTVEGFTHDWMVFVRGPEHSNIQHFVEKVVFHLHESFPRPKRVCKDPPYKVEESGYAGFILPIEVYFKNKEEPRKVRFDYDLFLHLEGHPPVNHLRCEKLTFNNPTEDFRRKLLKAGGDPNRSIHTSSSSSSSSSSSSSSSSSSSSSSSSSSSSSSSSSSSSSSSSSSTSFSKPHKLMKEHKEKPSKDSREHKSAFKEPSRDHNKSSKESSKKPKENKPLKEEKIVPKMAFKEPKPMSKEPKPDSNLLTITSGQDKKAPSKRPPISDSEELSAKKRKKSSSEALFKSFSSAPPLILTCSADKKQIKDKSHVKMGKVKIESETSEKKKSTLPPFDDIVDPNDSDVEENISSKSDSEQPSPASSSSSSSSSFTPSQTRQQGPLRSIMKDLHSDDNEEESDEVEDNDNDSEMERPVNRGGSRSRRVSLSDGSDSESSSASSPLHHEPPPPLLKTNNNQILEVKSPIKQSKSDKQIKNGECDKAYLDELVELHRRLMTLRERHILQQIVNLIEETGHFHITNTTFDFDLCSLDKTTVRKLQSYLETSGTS
# FGF22 binding: FGF22 (human) thermal shift binding; Q9HCT0; 1.5% of 340,000 active; recombinant FGF22 thermal shift, SYPRO orange fluorescence; percent of sucrose octasulfate shift, DMSO zero; calls only at 9.99 µM;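 active means melting point raised past a set limit in the mean and every replicate; inconclusive means no clear call; three in four hits are not shown here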
# Target sequence (Q9HCT0 whole entry, looked up): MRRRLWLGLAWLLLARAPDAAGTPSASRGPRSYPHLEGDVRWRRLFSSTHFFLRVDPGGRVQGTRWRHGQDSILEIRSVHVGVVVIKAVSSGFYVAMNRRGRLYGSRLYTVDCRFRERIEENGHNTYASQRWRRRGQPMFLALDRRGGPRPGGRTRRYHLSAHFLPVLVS
# rRNA inh HTS OD600: second read-out of rRNA inh HTS, no call of its own (marks repeat the call); OD600 change, %; measured here: OD600 growth;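 optical density of the mix in the first replicate; 0 = DMSO median and -100 = no signal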
# rRNA inh HTS RFP: second read-out of rRNA inh HTS, no call of its own (marks repeat the call); RFP signal change, %; measured here: RFP humanized mutant strains;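 first replicate; 0 = DMSO median and -100 = no signal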
# * marks the source's active call; other numbers are inactive results; i = inactive; u = inconclusive; x = no result given.
Molecule,Beta apoptosis,T cruzi inh,rRNA inh HTS,rRNA inh HTS OD600,rRNA inh HTS RFP,UCH37 DUB inh,E coli growth,Bfl-1 A1 inh,MLL AF4-AF9 inh,FGF22 binding
COc1ccc(N2CCN(Cc3nc4cc(Cl)ccc4c(=O)[nH]3)CC2)cc1,0,-9,4,12,0.5,-8.6,0.72,-0.3,-10,x
CCN1CCN(C(=O)C2(NC(=O)Nc3ccccc3Cl)CCCCC2)CC1,-7,-12,x,x,x,2.2,0.69,0.0,x,x
COC(=O)c1cn(CCOc2ccc(C)cc2)c2ccccc12,0,30,x,x,x,3.8,0.65,-0.5,x,x
Cc1ccc(NC(=O)CN(C)C(=O)c2ccc(OCc3c(C)noc3C)cc2)cc1,x,x,2,1,-0.8,-0.2,0.69,x,-1.8,i
COc1ccc(-n2nc(C(=O)NCC(=O)N3CC(C)CC(C)C3)c3ccccc3c2=O)cc1 (centres undefined),1,-6,-8,-13,5.9,-7.9,0.72,0.0,-0.1,i
Cc1c(OCc2nn[nH]n2)ccc2c3c(c(=O)oc12)CCC(C)C3 (centres undefined),4,6,x,x,x,-94,0.68,0.6,x,x
COc1ccc(-c2cc([N+](=O)[O-])ccc2OCC(=O)N(C)CC(=O)Nc2ccc(C)cc2)cc1,x,x,-9,-8,-0.7,3.1,0.7,x,0.5,i
Cc1cccc(N(C(=O)c2nsc(Cl)c2Cl)C(C(=O)NC2CCCC2)c2ccc(O)cc2)c1C (centres undefined),14,30,-12,-16,-19,3.5,0.73,1.9,5.5,i
COc1ccccc1OCC(=O)Nc1cccc(N(C)S(C)(=O)=O)c1,12,4,x,x,x,0.2,0.66,2.0,x,x
Cn1cnc([N+](=O)[O-])c1Oc1cccc(O)c1,-3,-16,x,x,x,7.8,0.73,1.4,x,x
COc1ccc(C(=O)OCCN2C(=O)c3ccccc3C2=O)cc1OC,x,x,6,4,-6.1,-0.2,0.71,x,0.2,i
O=C(NC1CCCC1)NS(=O)(=O)c1ccccc1Cl,0,-12,x,x,x,2.6,0.71,-1.2,x,x
CC(C)CC1NC(=O)c2ccc(Cl)cc2-n2c1nc1ccc(Cl)cc1c2=O (centres undefined),1,x,7,8,-8.3,x,x,0.8,1.1,i
COc1ccc(OC)c(S(=O)(=O)N(C)CC(=O)N2CCN(c3ccccc3F)CC2)c1,x,15,x,x,x,-0.3,0.71,-0.3,x,x
O=C1C=C(c2cc(F)ccc2F)C[C@@H](c2ccc(Cl)cc2)C1,-4,x,-19,-25,-16,1.1,x,-0.7,1.4,i
Fc1cccc(Cc2noc(CN3CCC(c4ccncc4)CC3)n2)c1,13,66*,5,1,3.3,0.1,0.68,0.1,-2.3,i
CCOC(=O)C(C(=O)OCC)N(C#N)c1nc(OC)nc(N(C)C)n1,-4,-1,x,x,x,1.1,0.66,2.8,x,x
CSCCC(NC(=O)c1cccc(S(=O)(=O)N2CCN(C(C)=O)CC2)c1)c1nc2ccccc2[nH]1 (centres undefined),x,x,9,11,-2.6,2.0,0.59,x,-1.6,i
CC(=O)N1CCN(S(=O)(=O)c2cccc(C(=O)OCC(=O)NC(=O)c3cccn3C)c2)CC1,-9,7,15,8,-3.1,4.2,0.68,0.5,-8.8,i
O=C(COc1ccc(Br)cc1)NNC(=S)NC(=O)c1ccccc1[N+](=O)[O-],-1,-14,x,x,x,6.3,0.64,-0.7,x,x
C=CCNc1cc(C(F)(F)F)nc(-c2ccccn2)n1,-9,-22,x,x,x,0.4,0.68,-1.2,x,x
COc1ccc(C(=O)CSC2=C(C#N)C3(CCCCC3)C(C#N)=C(N)N2)cc1,-2,6,x,x,x,2.0,0.71,0.0,x,x
COc1ccc(CCNC(=O)CCCCCN2C(=O)c3ccccc3C2=O)cc1,-1,1,x,x,x,1.6,0.68,-0.8,x,x
COc1ccc(S(=O)(=O)N[C@H](C(=O)O)C(C)C)cc1,-6,1,x,x,x,-3.2,0.75,0.4,x,x
CCOC(=O)N(CC)OC(=O)Nc1ccc(Cl)cc1,7,19,-14,-23,-9.0,4.1,0.65,0.8,x,x
O=c1c2oc3ccccc3c2ncn1Cc1ccc(Cl)cc1,-6,10,25,-7,-1.1,5.4,0.72,0.4,-2.4,i
N#Cc1nc(COc2ccc(F)cc2)oc1N1CCC(Cc2ccccc2)CC1,0,38,x,x,x,1.5,0.65,x,x,x
O=C(CCn1c(=S)oc2ccccc21)Nc1ccccc1Br,x,-1,7,10,-1.9,-1.7,0.7,0.2,-0.1,i
COc1ccccc1CNC(=O)c1cccc(S(=O)(=O)N2CCCC2)c1,x,x,-5,-6,-0.8,0.5,0.68,x,-2.0,x
CCOc1ccc(NC(=O)c2nnn(CC(=O)Nc3ccccc3OCC)c2N)cc1,-10,19,x,x,x,4.8,0.74,-0.4,x,x
COc1cc(N(C)C)c(NC(C)=O)cc1C(=O)O,-8,-10,x,x,x,2.3,0.72,1.6,x,x
Cc1nc(C)c(C(=O)C2=C(O)C(=O)N(CCN(C)C)C2c2ccccc2)s1 (centres undefined),x,-8,x,x,x,8.6,0.76,1.7,x,x
CCCc1cc(=O)[nH]c(SCC(=O)N(C)CC(=O)Nc2ccc(F)cc2)n1,-7,x,2,8,0.1,-3.2,0.66,-0.2,2.1,i
N#Cc1c(Nc2ccccc2)c(/C=N/NCCO)c[nH]c1=O,-7,8,20,19,0.4,x,x,-0.7,-2.6,i
COc1cc(CN2CCC(C)CC2)ccc1OCc1ccccc1,4,39,2,2,-0.7,1.3,0.62,0.1,3.8,i
Cc1ccc(OCC(O)CNC2CCCC2)c(C)c1 (centres undefined),3,2,5,-4,5.5,1.7,0.69,2.0,-1.7,i
O=C(Nc1nc2ccccc2s1)c1cccc(S(=O)(=O)N2CCc3ccccc32)c1,18,26,16,-11,63,-25,0.76,-0.5,-8.9,i
Cc1cc(F)ccc1S(=O)(=O)Nc1ccccc1C(=O)NCc1cccnc1,3,13,-24*,-16*,9.8*,-49,0.65,0.5,-2.8,i
CCOc1ccc(NC(=O)CC(c2ccccc2)c2ccc(F)cc2)cc1 (centres undefined),8,49,x,x,x,0.7,0.64,0.2,x,x
COc1ccc(S(=O)(=O)N2CCCCCC2)cc1C(=O)NCc1ccco1,0,x,x,x,x,2.5,0.67,-0.6,-5.6,i
Cc1ccc(S(=O)(=O)C2(C(=O)N3CCCCC3C)CC2)cc1 (centres undefined),-9,x,0,-4,-2.7,1.2,0.71,0.6,-12,i
CCN(CC)c1ccc(NC(=O)c2cccnc2)cc1,5,-1,x,x,x,5.0,0.7,0.7,x,x
Cc1cc(C)cc(N(C(=O)CNC(=O)c2cccs2)C(C(=O)NC2CCCC2)c2cccnc2)c1 (centres undefined),x,-10,x,x,x,4.8,0.7,0.7,x,x
COc1ccc(NC(=O)c2cnc(SC)n2-c2ccc(F)cc2)c(OC)c1,5,-1,-13,-18,7.8,3.8,0.64,0.1,10.0,i
C[C@]12CCC(=O)C=C1CC[C@@H]1[C@@H]2C(=O)C[C@@]2(C)[C@H]1CC[C@]2(O)C(=O)CO,-2,-11,2,0,6.1,5.6,x,-0.8,-7.0,i
O=C(Cc1ccc(Cl)cc1)NNS(=O)(=O)c1ccc([N+](=O)[O-])cc1,0,-1,x,x,x,3.0,0.67,-0.1,x,x
Cc1cc(NC(=O)c2ccc3c(c2)C(=O)N(c2cccc(C)c2C)C3=O)no1,-7,-9,7,11,0.5,3.6,0.7,0.2,0.5,i
CC(C)(C)C(=O)Nc1nnc(SCC(=O)Nc2nccs2)s1,-6,-12,15,8,-1.6,1.9,0.66,0.8,0.9,i
O=C1NC(Cc2ccc(O)cc2)c2nc3ccc(Cl)cc3c(=O)n2-c2ccc(Cl)cc21 (centres undefined),5,x,-23,-19,13,x,x,0.0,1.9,i
CCN(CC(=O)Nc1c(F)cccc1F)C(=O)c1cc(S(=O)(=O)N(C)C)ccc1N1CCCC1,7,1,5,6,0.4,3.5,0.7,1.3,-9.1,i
O=C1OCCN1c1c(-c2ccccc2)c(N2CCOCC2)nc2ccccc12,x,16,x,x,x,-11,0.69,0.9,x,x
CN(NC(=O)c1ccccc1)c1ncc(C(F)(F)F)cc1Cl,x,2,10,16,0.2,2.8,0.72,0.7,x,i
CCc1ccc(N2CC(C)Cn3c2nc2c3c(=O)n(CCN3CCOCC3)c(=O)n2C)cc1 (centres undefined),-3,4,x,x,x,-2.9,0.71,0.3,x,x
CCC1(C)N=c2c(c(=O)n(C)c(=O)n2C)=NO1 (centres undefined),2,-11,x,x,x,1.8,0.78,0.5,x,x
O=C(CN1C(=O)COc2ccc(S(=O)(=O)N3CCCC3)cc21)Nc1cccc(F)c1,-2,-5,-5,-4,0.9,4.5,0.71,0.2,4.7,i
CC(O)Cc1cn([C@@H](CCCCN)C(=O)N2CCNCC2)nn1 (some centres undefined),2,0,8,13,1.3,0.3,x,0.1,0.9,i
COc1ccccc1NC(=S)N1CCC(NC(=O)c2ccco2)CC1,1,-7,17,9,3.7,3.7,0.66,-0.7,-0.5,i
CC(=O)NC1=NN(C(C)=O)C(C)(c2ccc(C)o2)S1 (centres undefined),-3,-3,15,12,0.8,2.4,0.66,-0.4,0.2,x
Cc1cc(C(F)(F)F)nc(SCC(=O)Nc2nccs2)n1,-4,-13,16,4,1.9,-1.0,0.7,0.6,1.8,i
O=C(NCc1cccnc1)c1ccc([N+](=O)[O-])cc1,103*,-1,12,10,-0.2,4.3,0.67,0.3,0.5,i

# The list continues.
Molecule,Beta apoptosis,T cruzi inh,rRNA inh HTS,rRNA inh HTS OD600,rRNA inh HTS RFP,UCH37 DUB inh,E coli growth,Bfl-1 A1 inh,MLL AF4-AF9 inh,FGF22 binding
CNC(=O)Nc1ccccc1F,0,-9,x,x,x,4.6,0.71,2.3,x,x
Cc1ccc2c(c1)C(c1ccccc1)C(=O)O2 (centres undefined),x,-12,5,8,-2.2,2.1,0.73,0.7,1.9,i
CCC(CC)C1C(C#N)=C(N)Oc2n[nH]c(-c3ccccc3)c21 (centres undefined),3,-7,x,x,x,6.2,0.72,0.0,x,x
CCOc1ccc(-c2nc(-c3ccncc3)no2)cc1OCC,4,-16,2,7,-2.4,-4.0,0.71,0.2,x,x
COC(=O)c1c(NC(=O)C2CC(C)=C(C)CC2C(=O)O)sc2c1CCCCC2 (centres undefined),-6,-1,-16,-13,-0.8,6.0,0.68,u,-2.1,i
O=C(Nc1cc(Cl)cc(Cl)c1)C(c1ccccc1)N1CCCCC1 (centres undefined),0,21,x,x,x,2.0,0.72,0.0,x,x
S=C(Cc1ccccc1)N1CCOCC1,x,x,20,7,0.8,1.2,0.69,x,-5.1,i

# An excerpt; the hit share may differ from the screen's.
